# Lassa entry inh = inhibitors of Lassa virus binding or cell entry; Lassa virus pseudotype entry inhibition, cell reporter; control for the full effect not named in the record; Potency, µM (top dose mostly 37.9 µM), for the others: at the highest dose activity change, negative = inhibition, hits mostly inhibitors; 1.2% of 300,000 active; AID 540256; active means well fitted inhibition curve with a large enough effect; inconclusive means small, poorly fitted or top-dose-only effect, or effect the other way; inactive means flat fitted curve, though single readings scatter; tested in HEK293 cells; also: % is scaled to controls: 0 for no effect and ±100 for the full control effect; nearly all actives have a fitted effect of over 50% in size; luciferase read-out
# SARS PLpro yeast = inhibitors of SARS-CoV papain-like protease in yeast; S. cerevisiae expressing SARS-CoV PLpro, growth rescue; control for the full effect not named in the record; 0.19% of 330,000 active; Potency, µM (doses to about 32.9 µM), without a hit: top-dose activity, positive = growth rescue; active means well fitted rising curve with a large enough effect; inconclusive means small, poorly fitted or top-dose-only effect; inactive means no such curve, though single readings can be large or run the other way; also: 0% is about no effect; nearly all actives have a fitted effect of over 55% in size; growth read by luminescence after 48 h
# Cruzain inh noDet = inhibitors of Trypanosoma cruzi cruzain without detergent; P25779; Potency, µM, inactives show max response, negative = inhibition, most hits filed as inhibitors; 2.3% of 200,000 active; purified cruzain, Z-FR-AMC fluorescence, no detergent;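 also: plate controls were enzyme without inhibitor for no effect and buffer without enzyme for full effect; nearly all actives have a fitted effect of over 40% in size; top concentration of the series not given in the record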
# Target sequence (P25779 123-467 limits assumed): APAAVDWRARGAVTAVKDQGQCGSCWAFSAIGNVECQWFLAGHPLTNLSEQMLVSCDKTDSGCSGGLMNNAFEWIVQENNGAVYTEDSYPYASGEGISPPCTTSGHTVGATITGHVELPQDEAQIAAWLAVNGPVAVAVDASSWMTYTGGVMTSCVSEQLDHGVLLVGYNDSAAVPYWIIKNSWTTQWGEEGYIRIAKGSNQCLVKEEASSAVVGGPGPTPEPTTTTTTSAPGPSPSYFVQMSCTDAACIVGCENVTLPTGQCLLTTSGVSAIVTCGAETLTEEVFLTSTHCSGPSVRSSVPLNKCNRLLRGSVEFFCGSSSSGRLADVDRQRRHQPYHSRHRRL
#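 Purified cruzain at 1.5 nM, pre-incubated 15 min with compound at room temperature in 100 mM sodium acetate pH 5.5, 5 mM DTT, 0.00005% Triton X-100. Reaction started with 2 uM Z-FR-AMC; AMC fluorescence increase over 60 s gives rate.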
# NS1 function inh = blocks influenza NS1 protein function; S. cerevisiae slowed by influenza A NS1, growth recovery by OD600; Potency, µM (top dose mostly 46.1 µM), without a hit: at the top dose activity, positive = more growth; 0.4% of 270,000 active; AID 2326; active means well fitted rising curve with a large enough effect; inconclusive means small, poorly fitted or top-dose-only effect; inactive means no such curve, though single readings can be large or run the other way; also: nearly all actives have a fitted effect of over 50% in size
#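 Recovery from NS1-induced slow growth read by OD600 in budding yeast switched to galactose assay medium (pH 6.0, -URA) at 1:100 dilution. Compound 23 nl per well; the matching strain lacking NS1 serves as control.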
# StopGo reporter = FMDV 2A StopGo reporter, luciferase signal | human cells with a luciferase reporter of 2A StopGo recoding; control for the full effect not named in the record | Potency, µM (highest dose often 57.9 µM), without a hit: at the top dose signal change, negative = less light | 1.2% of 410,000 active | AID 1159524; active = well fitted falling curve with a large enough effect; inconclusive = small, poorly fitted or top-dose-only effect; inactive = no such curve, though single readings can be large or run the other way; tested in HEK293T cells; also: % is scaled to controls: 0 for no effect and ±100 for the full control effect; nearly all actives have a fitted effect of over 45% in size; luciferase light after 4 h
# MARV entry inh = blocks Marburg virus binding to or entry into cells. Marburg virus pseudotyped entry inhibition, cell reporter; control for the full effect not named in the record; about a third of the inactives were read at about 46 µM. AID 540276. 1.8% of 300,000 active. Potency, µM (doses to about 37.8 µM), for the others: at the top dose activity change, negative = inhibition, usual class: inhibitors; active = well fitted inhibition curve with a large enough effect; inconclusive = small, poorly fitted or top-dose-only effect, or effect the other way; inactive = flat fitted curve, though single readings scatter; tested in HEK293 cells; about a fifth of its hits are not listed in these tables; also: % is scaled to controls: 0 for no effect and ±100 for the full control effect; luciferase read-out
# Cruzain inh Det = blocks cruzain activity in presence of Triton detergent; P25779; purified cruzain, Z-FR-AMC fluorescence, 0.01% Triton; Potency, µM, inactives show max response, negative = inhibition, usual class: inhibitors; 0.43% of 200,000 active;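 also: plate controls were neutral wells for no effect and buffer without enzyme for full effect; nearly all actives have a fitted effect of over 40% in size; top concentration of the series not given in the record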
#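 Detergent-containing run (0.01% Triton X-100) in acetate buffer pH 5.5 with 5 mM DTT: enzyme at 1.5 nM final, 15 min compound preincubation at room temperature, then 2 uM Z-FR-AMC substrate. Activity taken as 60 s fluorescence increase at 360/450 nm.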
# RE007 growth inh = less growth of the S. pombe RE007 Vpr strain | S. pombe RE007 Vpr strain, BacTiter-Glo ATP luminescence, 24 h; control for the full effect not named in the record | Potency, µM (doses to about 92.2 µM), without a hit: at the highest dose activity change, negative = less growth | 0.21% of 360,000 active; active = well fitted falling curve with a large enough effect; inconclusive = small, poorly fitted or top-dose-only effect; inactive = no such curve, though single readings can be large or run the other way;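 also: % is scaled to controls: 0 for no effect and ±100 for the full control effect; nearly all actives have a fitted effect of over 50% in size; the assay follows cell death caused by Vpr and the record does not say whether a fall means rescue or toxicity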
#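 Fission yeast RE007 carrying one integrated HIV-1 vpr copy, seeded at OD 0.01 in PMG+AL medium with 23 nL pinned compound. Grown 24 h at 30 degrees; viability read by BacTiter-Glo luminescence after 5 min.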
# * marks the source's active call; other numbers are inactive results; ? = inconclusive; . = not tested or not shown; & = joins results of further samples; [ ] = another dose, or the depositor's remark. Unless noted, calls follow the shape of the dose curve; as a rule, active = well fitted curve in the direction sought with a large enough effect; inconclusive = small, poorly fitted or top-dose-only effect, or another doubt; inactive = no such curve, though single readings can be large; an effect the other way counts as inactive or inconclusive. Potency is read from the fitted curve at half-maximal effect.
SMILES,Lassa entry inh,SARS PLpro yeast,Cruzain inh noDet,NS1 function inh,StopGo reporter,MARV entry inh,Cruzain inh Det,RE007 growth inh
Cc1cccc(-n2c(O)c(C=Nc3ccc4c(c3)OCO4)c3ccccc3c2=O)n1,0%,-1%,?,?,0%,-22%,-3.9%,-31%
COc1ccc(NS(=O)(=O)c2cccc(C(=O)N/N=C/c3cn(-c4ccccc4)nc3-c3ccccc3)c2)cc1,.,-1%,.,7%,?,.,.,-2%
O=C(CSc1nc2ccsc2c(=O)n1Cc1ccc(C(=O)O)cc1)NCC1CCCO1 (centres undefined),17%,7%,-2%,7%,-7%,0%,-2.5%,18%
Cc1cccc(N2N=C(C(=O)Nc3nc(C)cs3)CCC2=O)c1,.,0%,.,-5%,3%,.,.,-12%
N#CCCN(Cc1ccncc1)C(=S)NC1CC2C=CC1C2 (centres undefined),2%[46.1 µM],0%,.,10%,-4%,?,.,-13%
COCCn1c(SCC(=O)Nc2nc(C)cs2)nnc1C(C)C,8%,1%,.,-6%,-8%,9%[46.1 µM],.,12%
CN1C(C(=O)NCc2ccccc2)CC2Cn3c(nc4ccccc43)C21 (centres undefined),.,2%,.,-1%,-11%,.,.,22%
O=S(=O)(N1CCOCC1)n1nnc2ccccc21,-4%,-6%,-10%,10%,.,19%,2.6%,-6%
N/C(Cc1cccs1)=N\OC(=O)COc1ccc(Br)cc1,5%,-5%,0%,-52%,23%,-1%,-5.7%,-9%
CCN(CC)c1ccc(C(=O)OCC(=O)Nc2cc3oc4ccccc4c3cc2OC)cc1,?,-4%,13µM*,-2%,-5%,-2%[46.1 µM],-17%,17%
O=C(NC1CCCCC1)c1ccc(CNc2ccccc2)o1,-7%,3%,2%,-15%,1%,3%,0.9%,5%
CC(=O)Nc1ccc(OCc2ccc3c(c2)OCO3)cc1,-21%[46.1 µM],-10%,.,-9%,29%,?,.,-4%
O=C(CCNS(=O)(=O)c1ccc2[nH]c(=O)oc2c1)NCc1ccc(F)cc1,3%[46.1 µM],4%,.,7%,0%,2%[46.1 µM],.,-9%
CCc1cccc(NC(=O)c2snc3c(=O)[nH]cnc23)c1,3%,-4%,-1%,-5%,8%,22%[46.1 µM],-2.7%,21%
CCOC(=O)c1c(CSc2ccccc2)n(C)c2ccc(O)c(CN3CCOCC3)c12,.,-3%,.,9%,?,.,.,-10%
Cc1cc(N)n(-c2ccc(Cl)cc2)n1,2%,0%,.,4%,-6%,10%[46.1 µM],.,2%
Cn1cc(CNC(=O)C2c3ccccc3Oc3ccccc32)cn1,20%,-4%,-19%,-5%,-2%,-1%,5.5%,17%
COC(=O)c1ccccc1S(=O)(=O)NNC(=O)c1nn(C)c(=O)c2ccccc12,1%,-16%,.,.,-8%,4%,.,6%
O=[N+]([O-])c1ccccc1O[C@@H]1O[C@H](CO)[C@H](O)[C@H](O)[C@H]1O,-6%,2%,.,?,4%,-6%[46.1 µM],.,3%
COc1ccc(CN2CCN(c3cc(C)nc4c5c(C)cc(C)nc5nn34)CC2)cc1F,8%,1%,?,-17%,-14%,-2%,-6.7%,-2%

# 3 compounds from above, ordered by length of the SMILES, low to high:
SMILES,Lassa entry inh,SARS PLpro yeast,Cruzain inh noDet,NS1 function inh,StopGo reporter,MARV entry inh,Cruzain inh Det,RE007 growth inh
Cc1cc(N)n(-c2ccc(Cl)cc2)n1,2%,0%,.,4%,-6%,10%[46.1 µM],.,2%
O=S(=O)(N1CCOCC1)n1nnc2ccccc21,-4%,-6%,-10%,10%,.,19%,2.6%,-6%
Cc1cccc(-n2c(O)c(C=Nc3ccc4c(c3)OCO4)c3ccccc3c2=O)n1,0%,-1%,?,?,0%,-22%,-3.9%,-31%

# Reformatted bar-delimited: part of the list above.
SMILES | Lassa entry inh | SARS PLpro yeast | Cruzain inh noDet | NS1 function inh | StopGo reporter | MARV entry inh | Cruzain inh Det | RE007 growth inh
COc1ccc(NS(=O)(=O)c2cccc(C(=O)N/N=C/c3cn(-c4ccccc4)nc3-c3ccccc3)c2)cc1 | . | -1% | . | 7% | ? | . | . | -2%
O=C(CSc1nc2ccsc2c(=O)n1Cc1ccc(C(=O)O)cc1)NCC1CCCO1 (centres undefined) | 17% | 7% | -2% | 7% | -7% | 0% | -2.5% | 18%
Cc1cccc(N2N=C(C(=O)Nc3nc(C)cs3)CCC2=O)c1 | . | 0% | . | -5% | 3% | . | . | -12%
N#CCCN(Cc1ccncc1)C(=S)NC1CC2C=CC1C2 (centres undefined) | 2%[46.1 µM] | 0% | . | 10% | -4% | ? | . | -13%
COCCn1c(SCC(=O)Nc2nc(C)cs2)nnc1C(C)C | 8% | 1% | . | -6% | -8% | 9%[46.1 µM] | . | 12%
CN1C(C(=O)NCc2ccccc2)CC2Cn3c(nc4ccccc43)C21 (centres undefined) | . | 2% | . | -1% | -11% | . | . | 22%

# (next part)
SMILES,Lassa entry inh,SARS PLpro yeast,Cruzain inh noDet,NS1 function inh,StopGo reporter,MARV entry inh,Cruzain inh Det,RE007 growth inh
O=C1CC(c2ccccc2)=NN1c1ccccc1,-3%[46.1 µM],.,.,.,5%,?,.,0%
CC(C)C(=O)NC1CC(=O)N(c2ccc3c(c2)OCCO3)C1 (centres undefined),-25%[46.1 µM],.,7%,.,-15%,.,-0.3%,.
Cc1cc(=O)oc2c1c(C)nn2-c1ccc(Br)cc1,10%,1%,.,-3%,4%,?,.,5%
CCSc1nnc(NC(=O)NC(CC)(C(F)(F)F)C(F)(F)F)s1,?,-10%,5%,-17%,?,?,-4.5%,4%
CCc1ccc(OCC(=O)OCC(=O)NC2CCCC(C)C2C)cc1 (centres undefined),-2%[46.1 µM],-11%,.,.,2%,?,.,2%
COc1ccc(S(=O)(=O)CCc2nnc(NC(C)=O)s2)cc1,6%,0%,.,.,7%,10%[46.1 µM],.,-8%
CCN(CC)C(=O)C1CCCN(Cc2cccc(F)c2)C1 (centres undefined),-11%,-4%,13%,-6%,-9%,-4%,3.0%,14%
O=C(Nc1ncccc1O)c1ccc(NS(=O)(=O)c2ccc3[nH]c(=O)[nH]c3c2)cc1,20%,-2%,.,.,-3%,5%,.,-14%
CCSC(=S)c1c(C)[nH]n(-c2ccccc2)c1=O,6%,-3%,.,-36%,-21%,8%,.,0%
CCOC(=O)N1CCN(S(=O)(=O)c2c(C)nc3sccn3c2=O)CC1,.,0%,.,5%,-14%,.,.,1%
Cc1cccc(NS(=O)(=O)c2cnc(Cl)c(Br)c2)n1,-17%,7%,-8%,-15%,75%[activator],-19%,-1.1%,-2%
O=C1CCc2ccc(NC(=O)C3CC3)cc2N1,-1%,2%,.,.,-16%,19%[46.1 µM],.,7%
Cc1ccccc1NC(=O)CCn1nc(-c2ccc(Cl)cc2)c2ccccc2c1=O,?,.,10%,.,-11%,-24%[46.1 µM],-6.7%,.
N#Cc1ccc2[nH]c(CO)c(-c3ccccc3)c2c1,.,-9%,.,-4%,-18%,.,.,15%
COc1ccc(C(=O)CC(=O)C(=O)Nc2cc(Cl)c(OC)cc2OC)cc1,.,?,.,-10%,-18%,.,.,0%
CC1CN/C(=C\C(=O)c2ccc(Br)cc2)C(=O)N1 (centres undefined),8.2µM*,21%,-13%,?,13µM*,2.2µM*,-7.8%,-12%
CCCN(C(=O)C(=O)Nc1ccc2nc3n(c(=O)c2c1)CCCCC3)c1ccc(OCC)cc1,-24%[46.1 µM],-2%,?,-2%,-28%&-20%,?,-5.7%,23%
CCC(C)[C@H](NC(=O)N1CC(=O)Nc2ccccc21)C(=O)Nc1ccccc1C (some centres undefined),.,-4%,.,7%,-14%,.,.,3%
C=CCN(CC=C)CCOc1cc(C)ccc1[N+](=O)[O-],-1%,1%,.,.,-7%,-11%[46.1 µM],.,-8%
N/C(=N\OC(=O)CCc1ccccc1)c1ccc(Br)cc1,-13%,2%,4%,-3%,.,21%,1.7%,-16%
CN1CCN(Cc2nc(-c3cccs3)no2)CC1c1ccccc1 (centres undefined),0%[46.1 µM],1%,.,2%,-15%,4%[46.1 µM],.,-3%
C/C(=N\NC(=O)c1ccc(C)cc1C)c1ccc(-n2ccnc2)cc1,?,7%,-6%,0%,3%,4%,-0.7%,3%
COc1ccc(CCNCC(=O)Nc2ccc(OC(F)F)cc2)cc1,.,-1%,.,10%,8%,-5%[46.1 µM],.,-5%
Cc1ccc(NC(=O)CCNC(=O)c2ccccc2Cl)nc1,7%,-3%,.,-18%,5%,-1%,.,-28%
COCCCNc1oc(-c2ccc(COc3ccc(Cl)cc3)o2)nc1C#N,-9%[46.1 µM],.,?,.,?,?,-10.0%,.
COc1cc(OC)cc(N2C(=O)N(CC(=O)c3ccc(F)cc3)c3ccccc3S2(=O)=O)c1,-28%[46.1 µM],.,?,.,-4%,.,0.4%,.
Cc1cccc(CN2CCN(CC(=O)NCCc3ccc(Cl)cc3)C2=O)c1,?,.,11%,.,9%,-8%[46.1 µM],-2.5%,.
CCOC(=O)CSc1nc2c(sc(=S)n2-c2ccccc2)c(=O)n1-c1ccc(OC)cc1OC,.,-1%,.,?,?,.,.,-3%
Cc1ccc(C)c(N2CC(C(=O)O)CC2=O)c1 (centres undefined),11%,0%,.,-1%,1%,8%[46.1 µM],.,-8%
CSc1ccc(Cn2nnc(C(=O)NCc3ccccc3)c2N)cc1,.,3%,-11%,8%,-16%,.,-2.0%,7%
Cc1c(Cl)cccc1NC(=O)CNC(=O)Cc1n[nH]c(=O)c2ccccc12,14%,0%,.,.,-17%,12%,.,0%
COc1cccc(N2CCN(CC(=O)Nc3ccc(S(=O)(=O)N4CCCCCC4)cc3)CC2)c1,?,0%,.,.,-11%,?,.,-8%
CCC(C)c1c(O)nc(SCC(=O)c2ccccc2)[nH]c1=O (centres undefined),-17%[14.3 µM],-14%,-8%,4.5µM*,-10%,15%,-2.0%,-9%

# From PubChem
